# Rango-impB inh: inhibitors of Rango-importin beta complex formation; Q14974; Rango CFP/YFP FRET sensor + importin beta, 45 min; 340,000 compounds, 0.031% hits; Potency, µM (top dose mostly 92.2 µM), without a hit: at the top dose inhibition of complex formation; active = rising FRET ratio curve, often small or poorly fitted; inconclusive = mostly compound fluorescence or quenching in the first reads; inactive = flat curves in all reads;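 also: potency is read from the fitted curve at half-maximal effect; 0% = DMSO wells and 100% = buffer wells lacking importin beta; nearly all actives have a fitted effect of over 15% in size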
#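 Inhibition scored from the CFP 486 nm/YFP 530 nm FRET ratio 45 min after adding 0.125 microM importin beta to 50 nM Rango biosensor preincubated 5 min with compound (room temperature, PBS with DTT, Tween-20, BSA). No-importin wells as positive control.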
# miR-21 FLuc: miR-21 reporter, rising signal; AID 2288; HeLa miR-21 FLuc reporter, luciferase, 48 h; 340,000 tested, under 10 active; Potency, µM (top dose mostly 38.3 µM), without a hit: at the top dose reporter change, positive = more light; active = well fitted rising curve with a large enough effect; inconclusive = small, poorly fitted or top-dose-only effect; inactive = no such curve, though single readings can be large or run the other way;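 also: % of control where 0% means no effect; miR-21 action dims this reporter so a rising signal means less miR-21 action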
#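 Compounds were titrated across several concentrations (up to approximately 40 uM) and incubated 48 hours with HeLa miR-21-FLuc reporter cells (miR-21 target sequence downstream of FLuc, endogenous miR-21). Readout was firefly luciferase luminescence after lytic detection reagent.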
# Rango dissoc inh: inhibition of RanGTP-driven Rango-importin beta dissociation; O95149+P62826; Biochemical FRET Rango-importin beta, RanGTP-induced dissociation; Potency, µM (top dose mostly 46.1 µM), for the others: at the top dose activity change, negative = inhibition; 340,000 compounds, 0.071% hits; AID 540253; active means falling FRET ratio curve, often poorly fitted, with flat reads before Ran was added; inconclusive means other falling curves, or compound fluorescence or quenching; inactive means flat or rising ratio curve;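 also: potency is read from the fitted curve at half-maximal effect; % of control where 0% means no effect; nearly all actives have a fitted effect of over 45% in size; -100% = wells without RanGTP and RCC1; the record marks most hits as doubtful in a second field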
#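 Two FRET readings bracket the reaction: one 5 min after compound meets Rango–importin beta, another 45 min after RanGTP-RCC1 (0.6 uM Ran, 0.2 uM RCC1, 2 mM GTP) is added. Only the second defines inhibition.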
# GLA inh pH 4.5: blocks human alpha-galactosidase A at pH 4.5 | activity change, negative = inhibition, % at 105 µM | purified enzyme, 4-MU-alpha-Gal fluorescence, pH 4.5 | AID 1467 | P06280 | 230,000 tested, under 10 active; inconclusive = small, poorly fitted or top-dose-only inhibition, or a rising curve; inactive = flat fitted curve, though single readings scatter; no compound was filed as active;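 also: 0% = full activity with enzyme and -100% = basal without enzyme; dose as in the result columns while the protocol names 77 µM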
# Target sequence (P06280 whole entry, looked up): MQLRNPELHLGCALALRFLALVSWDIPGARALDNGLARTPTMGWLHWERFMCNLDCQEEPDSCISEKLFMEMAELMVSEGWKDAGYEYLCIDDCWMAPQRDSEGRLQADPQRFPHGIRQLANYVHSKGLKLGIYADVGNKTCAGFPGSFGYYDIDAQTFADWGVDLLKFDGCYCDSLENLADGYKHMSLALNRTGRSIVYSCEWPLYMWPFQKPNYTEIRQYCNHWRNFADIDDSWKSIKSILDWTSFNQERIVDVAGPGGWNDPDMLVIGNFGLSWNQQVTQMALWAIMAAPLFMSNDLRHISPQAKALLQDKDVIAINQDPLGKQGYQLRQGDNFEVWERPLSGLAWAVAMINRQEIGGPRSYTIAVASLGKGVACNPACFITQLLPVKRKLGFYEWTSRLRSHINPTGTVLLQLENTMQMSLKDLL
# Starred values were filed as active, the others as inactive; ? = inconclusive; . = no result given; & = joins results of further samples. Some of the compounds tested; rates above refer to the full screens.
SMILES,Rango-impB inh,miR-21 FLuc,Rango dissoc inh,GLA inh pH 4.5
O=C(NC(=S)Nc1ccccc1[N+](=O)[O-])c1ccco1,-1.8%,-30%,1%,5
CC1=C(C(=O)NC2CCC(C)CC2)C2(CCC(C)CC2)OC1=O (centres undefined),-5.9%,-2%,-1%,-3
Cc1cc(NC(=O)CCc2ccc(-c3ccccc3)o2)no1,?,-9%,2%,.
O=C(Cc1nnc(NC(=O)c2ccccc2)s1)N/N=C/c1ccco1,-2.1%,-14%,-12%,-5
O=C(NCCCN1CCCC1)c1cccc(N2CCCC2=O)c1,1.8%,-4%,-7%,5
CCCCN(C(=O)CSc1nnc(Nc2ccc(C)c(C)c2)s1)c1c(N)n(Cc2ccccc2)c(=O)[nH]c1=O,-0.3%,-10%,?,11
CCN(C(=O)c1cnc(NC(C)C)cc1C(F)(F)F)c1ccc(Cl)cc1Cl,-6.3%,18%,8%,-3
COc1ccc(C)cc1NC(=O)CN1CCN(S(=O)(=O)c2ccc(Cl)cc2)CC1,-1.4%,-1%,-4%,-2
Brc1ccc(CNCC2CCCO2)cc1 (centres undefined),-1.1%,-1%,1%,.
Cc1ccc(C(=O)NCCN2CCOCC2)cc1Cl,0.0%,-14%,11%,1
Cc1c(NC(=O)C(C)n2cc([N+](=O)[O-])cn2)c(=O)n(-c2ccccc2)n1C (centres undefined),-4.4%,4%,0%,-10
O=C(Nc1ccc(S(=O)(=O)N2CCOCC2)cc1)c1ccc([N+](=O)[O-])o1,0.9%,6%,6%,0
COC(=O)C(C(=O)OC)=C(/C=C/C=C/N(C)C)N(C)C,?,0%,9.2µM*,-9
O=C(COc1cccnc1[N+](=O)[O-])Nc1ccc(S(=O)(=O)N2CCOCC2)cc1,0.5%,1%,6%,7
CC(=O)N1c2ccc(Cl)cc2C2C=CCC2C1c1cccc2ccccc12 (centres undefined),?,?,-8%,9
CCC1(c2ccc(Cl)cc2)NC(=S)N(c2ccc(C)c(C)c2)N1 (centres undefined),-0.1%,-23%,-13%,-7
CSc1sc(C)cc1C1C(C#N)=C(N)N(c2cccnc2)C2=C1C(=O)CC(C)(C)C2 (centres undefined),?,-5%,-28%,6
CCCCn1c(SCC(=O)Nc2nnc(CC)s2)nc2c1c(=O)n(C)c(=O)n2C,-2.8%,-1%,-3%,-10
CN1C(=O)c2ccccc2OC1(C)Cc1ccccc1 (centres undefined),0.1%,-2%,?,-25
CCCCOc1ccc(C(=O)NCC(=O)N2CC(C)OC(C)C2)cc1 (centres undefined),1.0%,.,0%,.

# Among those listed so far, these contain a halogen:
SMILES,Rango-impB inh,miR-21 FLuc,Rango dissoc inh,GLA inh pH 4.5
CCN(C(=O)c1cnc(NC(C)C)cc1C(F)(F)F)c1ccc(Cl)cc1Cl,-6.3%,18%,8%,-3
COc1ccc(C)cc1NC(=O)CN1CCN(S(=O)(=O)c2ccc(Cl)cc2)CC1,-1.4%,-1%,-4%,-2
Brc1ccc(CNCC2CCCO2)cc1 (centres undefined),-1.1%,-1%,1%,.
Cc1ccc(C(=O)NCCN2CCOCC2)cc1Cl,0.0%,-14%,11%,1
CC(=O)N1c2ccc(Cl)cc2C2C=CCC2C1c1cccc2ccccc12 (centres undefined),?,?,-8%,9
CCC1(c2ccc(Cl)cc2)NC(=S)N(c2ccc(C)c(C)c2)N1 (centres undefined),-0.1%,-23%,-13%,-7

# Next section
SMILES,Rango-impB inh,miR-21 FLuc,Rango dissoc inh,GLA inh pH 4.5
O=C(NN1CCN(Cc2ccccc2Cl)CC1)c1ccc(Cl)cc1,-2.5%,3%,-7%,9
COc1cccc(C(=O)OCC(=O)NCCC2=CCCCC2)c1,-1.4%,.,1%,.
CCc1ccc(NS(=O)(=O)c2cccc3nonc23)cc1,-1.4%,-2%,-13%,-7
CC(C)OP(=O)(c1ccc(N(C)C)cc1)C(O)c1ccc(C(C)C)cc1 (centres undefined),0.7%,-1%,-9%,.
Cc1noc(C)c1S(=O)(=O)Nc1ccc(C#N)cc1,1.7%,2%,0%,.
O=C(O)C1CCC(CNS(=O)(=O)c2ccc(Br)cc2)CC1 (centres undefined),2.8%,2%,2%,.
NC(=O)C1(Nc2ccc(-c3ccc(Cl)cc3)cc2)CCCC1,-1.1%,.,-3%,.
CCn1c(SCC(=O)NNC(=O)c2ccc(C)cc2)nnc1C(C)C,0.8%,0%,-8%,.
O=C(COc1ccccc1[N+](=O)[O-])N1CCCc2ccccc21,0.2%,-11%,9%,.
O=C(CCC(=O)c1cccs1)NCc1ccc(F)cc1,0.1%,1%,-8%,-2
COc1ccc(CC2C(=O)OC(C)(C)OC2=O)cc1,3.9%,1%,1%,1
O=C(CSc1nc(-c2ccccc2)cc(=O)[nH]1)Nc1ccc(Br)cc1,3.1%,3%,-7%,.
O=C(NN1C(=O)CSC1=S)c1cccnc1,-0.2%,4%,-19%,2
O=C(COc1ccc(/C=N/NC(=O)c2ccncc2)cc1)Nc1ccc([N+](=O)[O-])cc1,1.0%,1%,-3%,.
CN(C)c1cccc(NC(=O)C2(C)CC2(Cl)Cl)c1 (centres undefined),-4.1%,-3%,-3%,5
Clc1c(-c2ccccc2)nnn1-c1ccccc1,-2.6%,-52%,-11%,-16
COC(=O)CSc1nc(C)cc(C)c1C#N,-1.6%,2%,-16%,6
Nc1ncnc2c1ncn2[C@@H]1O[C@H](CNC(=O)[C@H]2CCC(=O)N2)[C@@H](O)[C@H]1O,-0.3%,.,0%,.
CC1(C(=O)NC(=S)N(CCC#N)c2ccccc2)CC1(Cl)Cl (centres undefined),-2.4%,-1%,24%,3
CN(C)c1ccc(N/C=C/C(=O)c2ccc(F)cc2)cc1,11%,-58%,3%,4
Cc1c(C#N)c2ncnc(N)c2n1-c1ccccc1,-1.0%,-11%,?,1
O=C(/C=N/O)Nc1cccnc1,3.9%,-2%,10%,0
Cc1ccc(NC(=O)CSCC(=O)Nc2ccccc2N2CCCC2)cc1,-4.4%,.,-23%,.
CCOC(=O)c1c(C)nc2c(c1-c1cc(OC)ccc1OC)C(=O)CC(C)(C)C2,-0.4%,0%,-2%,-9
Cc1ccc(C(=O)NNC(=O)c2cccnc2SCc2cccc([N+](=O)[O-])c2)cc1,2.4%,-16%,6%,-6
C/C(=N\NC(=O)c1[nH]c2c([N+](=O)[O-])cc(C)cc2c1-c1ccccc1)c1cccnc1,-0.4%,-5%,19%,0
CCc1ccc2c(c1)/C(=N/N(C)C(=S)NC)C(=O)N2,-1.6%,10%,5%,-1
Cc1ccccc1-n1c(-c2ccc(Br)o2)n[nH]c1=S,-4.5%,.,7%,.
CC1(C)SCC(C(=O)O)NC1=O (centres undefined),-0.1%,2%,3%,9
CC(=O)Nc1ccc(NC(=O)/C=C/c2ccc(Cl)cc2)cc1,2.1%,-5%,-16%,-8
CC(C)NC(=O)Nc1cccc2c1O[C@H](CN(C)C(=O)Nc1ccccc1)[C@@H](C)CN([C@H](C)CO)C2=O,-1.6%,.,-14%,.
COc1ccccc1N1CCN(CC(=O)Nc2cc(F)ccc2C)CC1,-0.3%,8%,-23%,-8
O=C1NC[C@H](Cc2ccccc2)N(C[C@H]2CCCN2C[C@H](Cc2ccccc2)N2C[C@H](Cc3ccc(O)cc3)N(CC3CCCCCC3)C(=O)C2=O)C1=O,-3.5%,.,5%,.
CC(NC(=O)CN1CCN(Cc2ccc(Cl)cc2)C1=O)c1ccc2c(c1)OCCO2 (centres undefined),-0.6%,0%,13%,1
O=C(NCc1cccc(C(F)(F)F)c1)C1CCC(=O)N(C2CCCCCC2)C1 (centres undefined),4.1%,-2%,-7%,.
Cc1csc(NC(=O)C2=COCCO2)n1,2.6%,.,9%,.
COC(=O)c1cccc(C(=O)N2CCCC(C(=O)c3cccc(OC(C)C)c3)C2)c1 (centres undefined),-1.4%,0%,0%,.
C/C(=N\Nc1nc(N2CCCCCC2)nc(N2CCCCCC2)n1)c1ccccc1,5.7%,3%,-24%,-5
COc1cccc(-c2ccc3nnc(SCC(=O)Nc4ccc(NC(C)=O)cc4)n3n2)c1,-2.8%,.,-10%,.
COc1ccc(OCC(=O)Nc2cc(-c3nn(C)c(=O)c4ccccc34)ccc2N2CCOCC2)cc1,-2.4%,-3%,-9%,-5
CC(Cc1ccccc1)C(=O)NCc1ccncc1 (centres undefined),0.3%,0%,-9%,3&2
Cc1cccc(N=Cc2[nH]c3ccc(Br)c(Cl)c3c2O)c1,?,-11%,?,-5
Cn1c(=O)n(C)c2cc([N+](=O)[O-])c(N3CCN(S(=O)(=O)c4ccccc4)CC3)cc21,-0.4%,2%,2%,-3
O=C(CN1CCOc2ccccc21)NCc1cccs1,1.2%,-7%,29%,11
COc1ccc(-c2cc(C(=O)NNC3=NCCC3)c3c(C)nn(-c4ccccc4)c3n2)cc1,-0.4%,-3%,-12%,-2
O=C(CCn1c(=O)oc2ccccc21)NCc1ccc2c(c1)OCO2,-1.8%,-7%,-13%,6
COc1cc(C(=O)N[C@H](C(=O)NC2CCCCCC2)C(C)C)cc(OC)c1OC,-0.1%,-1%,3%,-3
CCN(CC)S(=O)(=O)c1ccc(N2CCOCC2)c(NS(=O)(=O)c2ccc(C)cc2)c1,-3.7%,-2%,-5%,-7
Cc1c2cnn(CC(=O)Nc3cccc(C(F)(F)F)c3)c(=O)c2c(C)n1Cc1ccccc1F,-0.9%,-6%,0%,2
CC(NS(=O)(=O)c1ccc(OCC(=O)NCc2ccncc2)cc1)c1ccccc1 (centres undefined),-1.1%,1%,-4%,.
Cc1c(C(=O)N2CCN(Cc3ccccc3)CC2)sc2ncnc(N3CCOCC3)c12,-3.3%,2%,-6%,2
O=C(O)/C=C\C(=O)NCc1cccnc1,-5.8%,-1%,-8%,-1
COc1ccc(NC(=O)c2ccc(C#N)cc2)cc1NS(=O)(=O)c1ccc(F)cc1,1.3%,3%,5%,0
COc1cc2[nH]c(=O)c(C(=O)NCCCN3CCCCC3)c(O)c2cc1OC,2.4%,3%,1%,-6
COc1ccc(C)cc1NC(=O)C(c1ccccc1)N1CCN(CC(=O)NC2CC2)CC1 (centres undefined),-3.6%,.,-6%,.
Cc1ccc(S(=O)(=O)NN=Cc2ccc(N3CCOCC3)cc2)cc1[N+](=O)[O-],-4.3%,.,-27%,.
CCOc1ccc(N2C(=O)CC(N3CCOCC3)C2=O)cc1 (centres undefined),3.0%,-2%,3%,-4
CCOc1ccc(NC(=O)CCN2CCN(C)CC2)cc1,-1.3%,-3%,-6%,.
COc1ccc(S(N)(=O)=O)cc1C(=O)NC1CCCc2ccccc21 (centres undefined),-0.3%,-1%,0%,.
CN1CCC(N(C)C(=S)NC(=O)c2cc(-c3cccc(Br)c3)nc3ccccc23)CC1,0.7%,-9%,2%,3
COc1ccc(OCC(=O)N/N=C(\C)CC(=O)Nc2ccc(OC)cc2[N+](=O)[O-])cc1,1.6%,-1%,2%,-1
O=C(CCN1C(=O)/C(=C/c2ccccc2Cl)SC1=S)NNC(=O)c1ccccc1O,1.7%,-5%,16%,.

# Exported with two lines to a compound: two of the compounds above
# Below each SMILES – Rango-impB inh	miR-21 FLuc	Rango dissoc inh	GLA inh pH 4.5
COc1ccc(C)cc1NC(=O)C(c1ccccc1)N1CCN(CC(=O)NC2CC2)CC1 (centres undefined)
→ -3.6%	.	-6%	.
CCN(CC)S(=O)(=O)c1ccc(N2CCOCC2)c(NS(=O)(=O)c2ccc(C)cc2)c1
→ -3.7%	-2%	-5%	-7

# High-throughput results deposited in PubChem BioAssay by National Center for Advancing Translational Sciences (NCATS).
